# PINK1 expr mod: A Quantitative High throughput Screen to Identify Chemical Modulators of PINK1 Expression | AID 624263, 2012 | 410,000 tested, 0.2% active | Potency, µM (highest dose often 76.6 µM), for the others: at the highest dose activation (PINK1 increase), most hits filed as activators | PINK1 immunofluorescence, high-content cytometry, 24 h; active = well fitted activation curve with a large enough effect; inconclusive = small, poorly fitted or top-dose-only effect; inactive = flat fitted curve, though single readings scatter; cell line not stated here;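 further: potency means the concentration at half of the fitted maximal effect; % of control where 0% means no effect; nearly all actives have a fitted effect of over 65% in size; a mitochondrial uncoupler was the plate control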
#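 Cells are seeded, rested 12 hours, then given compound at five concentrations or DMSO for 24 hours. After fixation, blocking and antibody staining, PINK1 amount and mitochondrial localization are scored; CCCP serves as control.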
# TRPML1 agonist: qHTS for Agonists of the Human Mucolipin Transient Receptor Potential 1 (TRPML1); Mucolipin-1 (Homo sapiens), Q9GZU1; TRPML1-expressing cells, Ca2+ dye fluorescence, FDSS; host cell line not named in the record; reference of the full effect not given here; activation, % (no concentration beside the values); 410,000 tested, 0.12% active; AID 624414, 2012; in the data active = activation above about 50%; inconclusive = about 30% to 50%; inactive = below about 30%; further: 0% is about no effect; the text of the record puts the active cut at 80%
# Target sequence (Q9GZU1 whole entry, looked up): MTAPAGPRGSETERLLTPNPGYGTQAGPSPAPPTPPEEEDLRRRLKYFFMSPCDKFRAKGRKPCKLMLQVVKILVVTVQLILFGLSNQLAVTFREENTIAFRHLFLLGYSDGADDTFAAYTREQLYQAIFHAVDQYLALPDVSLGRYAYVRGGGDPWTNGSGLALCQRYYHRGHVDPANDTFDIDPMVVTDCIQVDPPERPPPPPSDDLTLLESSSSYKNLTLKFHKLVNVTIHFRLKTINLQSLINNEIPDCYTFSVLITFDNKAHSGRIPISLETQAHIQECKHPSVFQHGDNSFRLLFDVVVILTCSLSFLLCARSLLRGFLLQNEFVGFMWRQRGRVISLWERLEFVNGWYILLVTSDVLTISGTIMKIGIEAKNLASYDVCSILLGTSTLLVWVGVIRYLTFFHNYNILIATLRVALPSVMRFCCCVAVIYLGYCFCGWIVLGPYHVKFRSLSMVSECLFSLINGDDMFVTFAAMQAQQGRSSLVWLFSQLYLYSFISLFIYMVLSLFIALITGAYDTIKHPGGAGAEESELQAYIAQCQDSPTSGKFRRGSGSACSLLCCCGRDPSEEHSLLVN
#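 Calcium fluorescence on an FDSS kinetic reader gave the read-out. Tet-induced TRPML1-DL cells were plated overnight, dye-loaded (Ca8 with quencher, 45-90 min, room temperature, dark), then read 110 s after compound addition, and again 110 s after 4uM final 54-4 (EC80).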
# * marks the source's active call; other numbers are inactive results; . = no result given.
SMILES,PINK1 expr mod,TRPML1 agonist
COc1c(O)cc2c(c1O)C1OC(CO)C(O)[C@H](O)[C@H]1OC2=O (some centres not stated),0.9%,.
COc1cc2ncnc(Nc3cccc(Cl)c3)c2cc1OC,-1.0%,-1.0
CCCCN(CCCC)CC(O)c1cc(Cl)cc2c1-c1ccc(Cl)cc1C2=Cc1ccc(Cl)cc1 (configuration not stated),2.1%,-0.6

# Single records, as listed above:
# CCCCN(CCCC)CC(O)c1cc(Cl)cc2c1-c1ccc(Cl)cc1C2=Cc1ccc(Cl)cc1 (configuration not stated) is listed with PINK1 expr mod = 2.1%; TRPML1 agonist = -0.6
# COc1c(O)cc2c(c1O)C1OC(CO)C(O)[C@H](O)[C@H]1OC2=O (some centres not stated) is listed with PINK1 expr mod = 0.9%; TRPML1 agonist = .

# Bioassay records (PubChem)

# An excerpt, so the mix of outcomes need not match the whole.
